HSV replic up: enhancers of HSV replication in host cells, fold increase, host cell viability; HSV replication augmentation in cells; maximum fold increase; 0.005% of 220,000 active; AID 1956, 2009;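 active means peak rise of 1.5-fold or more in the series; tested in PC3 cells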;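 further: first round at 10 µM; read as green reporter fluorescence; hits show the peak of a series up to 25 µM; 1 = signal of infected wells without compound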
Insulin prom inh: inhibitors of insulin promoter-driven GFP, primary screen, imaging, TRM-6 cells (human fetal islet line), eGFP reporter, cell count; reporter expression induced with tamoxifen; inhibition, % at 2 µM; 0.9% of 130,000 active;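 active means inhibition above the mean plus 3 SD, with well images judged a real hit on visual review, cut at about 60% in these data, passing the limit was not always enough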
PKD1 kinase inh: inhibitors of human PKD1 kinase, biochemical, fluorescence polarization. inhibition, %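 (about 10 µM by stock and volumes)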. 0.056% of 200,000 active. PKD1 kinase fluorescence polarization assay;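 active means inhibition of 50% or more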;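 further: controls were vehicle for no effect and a reference inhibitor for full effect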
GALR2 ag: GALR2 receptor agonists, primary screen, cell-based. Galanin receptor type 2 (Homo sapiens), O43603. GALR2-expressing cells, agonist activation read-out. activation, %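 (tested at 5 µM)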. 0.48% of 140,000 active;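 active means above mean plus 3 SD of all compounds, about 5% in these data, not always enough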;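 further: 0% = vehicle buffer wells and 100% = reference agonist at full effect; tested in CHO reporter cells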
Target sequence (O43603 whole entry, looked up): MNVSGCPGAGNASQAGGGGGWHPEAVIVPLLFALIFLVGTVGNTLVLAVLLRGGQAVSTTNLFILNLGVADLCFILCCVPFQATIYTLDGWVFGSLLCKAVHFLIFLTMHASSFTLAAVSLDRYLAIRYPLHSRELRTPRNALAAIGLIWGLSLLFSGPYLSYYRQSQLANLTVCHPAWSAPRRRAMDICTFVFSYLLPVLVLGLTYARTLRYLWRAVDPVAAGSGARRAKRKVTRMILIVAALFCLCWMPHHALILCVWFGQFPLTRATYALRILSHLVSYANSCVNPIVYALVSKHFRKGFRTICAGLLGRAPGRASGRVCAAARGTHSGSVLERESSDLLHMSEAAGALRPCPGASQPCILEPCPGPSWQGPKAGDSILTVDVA
RGS16-Gao: modulators of RGS16 binding to Galphao, primary screen, biochemical, human proteins, multiplexed bead flow cytometry; 0.38% of 220,000 active; bead-based flow cytometry RGS16-Galphao binding, fluorescence; actives lie on both sides; binding response (% of control), % at 10 µM;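 active means below 25% or above 175%, edge rows of some plates excepted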;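 further: Galphao activated by GDP with aluminum fluoride before binding; 100% = wells without compound and 0% = beads without RGS; some results beyond the cut were filed as inactive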
Target sequence (O15492 whole entry, looked up): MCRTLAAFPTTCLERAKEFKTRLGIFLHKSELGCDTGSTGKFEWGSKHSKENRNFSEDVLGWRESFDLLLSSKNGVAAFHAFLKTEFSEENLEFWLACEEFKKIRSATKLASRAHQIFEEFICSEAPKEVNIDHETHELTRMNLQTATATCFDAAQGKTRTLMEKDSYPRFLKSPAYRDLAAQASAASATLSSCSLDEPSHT
Target sequence (P09471 whole entry, looked up): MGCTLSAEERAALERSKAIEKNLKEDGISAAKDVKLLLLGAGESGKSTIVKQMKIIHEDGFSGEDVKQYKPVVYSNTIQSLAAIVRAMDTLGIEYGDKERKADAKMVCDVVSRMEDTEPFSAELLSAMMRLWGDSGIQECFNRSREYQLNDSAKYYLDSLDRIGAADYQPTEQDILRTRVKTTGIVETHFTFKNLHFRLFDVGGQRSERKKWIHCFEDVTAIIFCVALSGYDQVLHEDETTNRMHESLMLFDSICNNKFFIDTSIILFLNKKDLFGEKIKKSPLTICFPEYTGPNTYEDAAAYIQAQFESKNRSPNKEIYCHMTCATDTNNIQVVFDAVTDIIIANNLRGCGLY
Insulin prom inh cell count: further read-out of Insulin prom inh, marked with its call; normalized cell count, %; measured here: cell count, toxicity; reference of the scale not given here;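 cells exposed to compound for 48 h; stained nuclei by imaging scaled within each plate; lower means fewer cells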
HSV replic up primary fold: second read-out of HSV replic up, no call of its own (marks repeat the call); fold increase; compound at 10 µM; measured here: primary screen fold increase 10 uM; tested in PC3 cells;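 GFP signal in the first replicate; 1 = infected wells without compound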
Starred values were filed as active, the others as inactive; i = inactive; nt = no result given. Rows were taken by chance; any-hit rate near 1.3%.

#	Compound	HSV replic up	HSV replic up primary fold	Insulin prom inh	Insulin prom inh cell count	PKD1 kinase inh	GALR2 ag	RGS16-Gao
1	N#Cc1nc(-c2cccs2)oc1NCCc1ccccc1	i	1.06	-3.5	85.9	-6.4	-2.9	104.0
2	Clc1ccc(COn2ccnc2)cc1Cl	i	0.98	nt	nt	-2.3	nt	98.1
3	CCOC(=O)N1CCN(S(=O)(=O)c2cc(OCC(N)=O)c(C)cc2Cl)CC1	i	1.04	-20.0	100.0	-9.3	-1.1	103.1
4	COc1ccccc1-c1ccc(Nc2cccc(C(F)(F)F)c2)nn1	i	1.03	31.2	121.0	-4.3	-2.0	108.9
5	CC(=O)Nc1ccc(OCC(O)CN2CCN(S(=O)(=O)c3ccc(NC(C)=O)cc3)CC2)cc1 (stereo not given)	i	0.92	38.9	52.5	-6.7	-0.9	99.6
6	CN(C)c1ccc(-c2nn3c(-c4ccccc4Cl)nnc3s2)cc1	i	0.55	nt	nt	6.5	4.6	102.7
7	CC(C)C(=O)N1CCN(c2ccc([N+](=O)[O-])c(NC(C)c3ccccc3)c2)CC1 (stereo not given)	i	0.84	-34.4	116.1	1.1	1.1	101.6
8	Cc1ccc(NC(=O)N2CCN(Cc3ccc4c(c3)OCO4)CC2)cc1	i	0.85	23.1	102.9	-4.8	-2.3	103.4
9	CCCCCCCCCCC[C@@H](C[C@@H]1OC(=O)[C@H]1CCCCCC)OC(=O)[C@H](CC(C)C)NC=O	i	0.77	nt	nt	nt	nt	97.7
10	Cc1nnc(SCC2CCCO2)n1-c1ccccc1 (stereo not given)	i	0.93	-7.7	91.8	-2.0	-1.0	101.4
11	CC(C)(C)c1cc(-c2ccccc2)no1	i	0.82	nt	nt	nt	nt	87.9
12	COc1cc(Cl)c(C)cc1NC(=O)CSCC#N	i	0.69	0.0	85.7	-9.5	-0.4	106.8
13	C=CCNC(=O)c1c(Br)cnn1-c1ccc(C)cc1	i	0.98	nt	nt	3.3	nt	100.9
14	CC(=O)Nc1ccc(-c2ccnc(-c3ccc(NC(C)=O)cc3)n2)cc1	i	0.84	nt	nt	2.2	nt	104.4
15	NS(=O)(=O)c1ccc(NC(=S)Nc2ccc(F)c(F)c2)cc1	i	1.06	-7.9	152.6	-10.7	0.2	103.4

Reprinted from the part before: 2 compounds; new compounds follow.
#	Compound	HSV replic up	HSV replic up primary fold	Insulin prom inh	Insulin prom inh cell count	PKD1 kinase inh	GALR2 ag	RGS16-Gao
14	CC(=O)Nc1ccc(-c2ccnc(-c3ccc(NC(C)=O)cc3)n2)cc1	i	0.84	nt	nt	2.2	nt	104.4
15	NS(=O)(=O)c1ccc(NC(=S)Nc2ccc(F)c(F)c2)cc1	i	1.06	-7.9	152.6	-10.7	0.2	103.4
16	CN(CC(O)COCc1cccs1)C1CCCCC1 (stereo not given)	i	1	nt	nt	-9.2	-0.5	101.2
17	O=C(O)C1CCCN1C(=O)Nc1ccc(F)cc1 (stereo not given)	i	0.75	-347.4	67.0	-0.4	-2.7	101.9
18	CCOc1ccc2nc(SC3CC(=O)N(c4ccc(OC)cc4OC)C3=O)sc2c1 (stereo not given)	i	0.95	21.1	75.4	10.5	nt	100.7
19	Cn1c(CCN2CCOCC2)nc2cc(NC(=O)COc3ccccc3)ccc21	i	0.89	nt	nt	10.1	-2.2	97.0
20	Cc1cc(C)n2nc(C(=O)OCC(=O)c3c[nH]c4ccccc34)nc2n1	i	1.18	63.6	72.6	-6.7	nt	96.7
21	Brc1cnc(N2CCCC2)nc1N1CCCCC1	i	1.03	nt	nt	-4.8	-2.2	101.0
22	CN(C)S(=O)(=O)c1cccc(N=c2scc(-c3ccc4c(c3)NC(=O)CO4)n2CC2CCCO2)c1 (stereo not given)	nt	nt	27.0	105.3	-8.5	-2.1	98.9
23	O=C(Nc1ccccc1)c1ccc(=O)n(Cc2ccc(F)c(F)c2)c1	i	0.97	7.7	119.9	2.6	nt	100.6
24	O=C(CCc1ccc(S(=O)(=O)NCCc2ccccc2)cc1)NCc1ccco1	i	1.13	-425.0	20.9	0.8	0.2	90.8
25	N#Cc1c(N)c(C(=O)c2ccccc2)n2c1CCC2	i	0.92	43.2	123.7	-7.1	0.2	99.2
26	COC(=O)[C@H](CC(C)C)NC(=O)NC1CCCc2ccccc21 (stereo not given in full)	i	1.04	34.6	111.4	-11.9	-1.3	102.3
27	CCN(CC)C(=O)c1cn(CCC#N)nc1-c1ccc(F)cc1	i	0.91	-84.6	124.0	6.0	nt	103.5
28	CCOC(=O)c1c(Nc2nc(C)c(C(=O)NC)s2)sc(C)c1C	i	1	nt	nt	-15.8	0.5	98.0
29	COc1ccc2cc(C(=O)C3CCCN(C(=O)c4ccnn4C)C3)ccc2c1 (stereo not given)	i	0.68	nt	nt	nt	nt	102.4
30	O=C(CN1C(=O)C2CC=CCC2C1=O)Nc1ccc(S(=O)(=O)Nc2nccs2)cc1 (stereo not given)	i	0.85	nt	nt	nt	nt	100.6
31	Cc1cccc(N2CCN(C(=O)c3cc(=O)[nH]c4ccccc34)CC2)c1C	i	0.95	-14.3	100.4	4.3	nt	96.6
32	CCOC(=O)Cn1c(CN(C)Cc2ccccc2)nc2c1c(=O)n(C)c(=O)n2C	i	0.88	7.0	151.6	1.1	0.0	nt
33	C=CCC(=O)OCC(=O)Nc1ccc(Cl)cn1	i	0.95	-12.5	138.8	4.0	-0.9	119.1
34	CCC(Sc1nc(=O)cc(N)n1CCc1ccccc1)C(=O)Nc1cc(C)on1 (stereo not given)	i	0.76	nt	nt	-4.2	-2.1	104.7
35	CN1CCCN(Cc2ccc(Cl)cc2Cl)CC1	i	0.93	nt	nt	-4.2	0.7	111.3
36	COc1ccc(CN2CCC(CO)(Cc3cccc(C(F)(F)F)c3)CC2)cc1Cn1cccn1	i	0.83	nt	nt	10.2	nt	105.6
37	CCOC(=O)c1nnn(CC(=O)N2N=C(c3ccc(Cl)cc3)CC2c2ccccc2)c1C(=O)OCC (stereo not given)	i	0.78	-48.3	85.1	2.4	-4.7	98.4
38	CN(C)c1nc(Oc2ccc(=O)n(C)n2)nc(N2CCOCC2)n1	i	0.89	-38.7	160.3	-7.1	-0.7	97.4
39	O=C1Nc2ccc(S(=O)(=O)N3CCCC3C(=O)O)c3cccc1c23 (stereo not given)	i	0.78	nt	nt	-7.6	-1.8	99.5
40	Cc1ccc(C)c(NC(=S)N(C)CCc2ccccn2)c1	i	0.95	2.0	117.7	-7.5	-1.9	101.0
41	O=c1oc(-c2ccc([N+](=O)[O-])cc2)nc2ccccc12	i	1.06	11.1	33.3	2.5	nt	49.3
42	COc1cc(NC(=O)C2CCCN2S(=O)(=O)c2ccc3c(c2)CCC(=O)N3)cc(OC)c1 (stereo not given)	i	0.86	nt	nt	-0.4	-1.7	104.8
43	Cc1ccc(C2C3=C(CCCC3=O)Nc3c2c(C)nn3-c2ccccn2)o1 (stereo not given)	i	0.97	nt	nt	-6.1	nt	104.8
44	CCOC(=O)C1CCN(c2ncnc3c2oc2ccccc23)CC1	i	0.77	nt	nt	-12.2	-1.0	106.1
45	Nc1cnc(-c2ccccc2)nc1Cl	i	0.93	10.0	123.8	5.4	0.0	104.2
46	CCOC(=O)c1ccc(NC(=O)CSc2nnc(COc3ccccc3OC)n2C)cc1	i	0.96	-16.2	109.2	-1.2	-0.2	102.1
47	O=C(Cc1ccccc1)Nn1c(-c2ccccc2F)nc2ccccc2c1=O	i	1.01	-50.0	81.4	1.0	nt	96.3
48	COCCCN1C(=O)/C(=C\c2cccs2)C(C(=O)OC)=C1C	i	1.03	-52.9	134.7	-5.1	nt	99.1
49	COc1ccccc1N1CC=C(c2cccc([N+](=O)[O-])c2)NC1=O	i	0.95	nt	nt	nt	nt	92.9
50	CCOC(=O)c1c(NC(=O)c2ccc(Cl)cc2)csc1C	i	1.06	9.7	83.9	-10.0	-1.2	102.8
51	Cc1ccc(C(C)C)c(OCC(=O)NNC(=O)C(C(C)C)N2C(=O)c3ccccc3C2=O)c1 (stereo not given)	i	0.88	-48.3	82.4	-1.6	-0.5	33.8
52	O=C(CNC(=O)c1ccc(Br)o1)Nc1cccc(-c2cnc3ccccc3n2)c1	i	0.92	-6.5	47.4	-5.6	0.8	89.6
53	CCCNCc1cc(OC)c(OCC(=O)NCCc2ccccc2)cc1Br	i	0.87	-7.7	103.1	-6.9	-1.0	110.7
54	Cc1cc(C)n(CCCNC(=O)c2ccc(S(=O)(=O)NCc3ccco3)cc2)n1	i	0.95	-13.8	103.7	0.1	-2.7	96.9
55	O=C(Nc1sc2c(c1CN1CCOCC1)CCC2)c1ccc(F)cc1	i	1.04	6.7	108.8	-5.9	0.5	103.6
56	O=C(N/N=C/c1cn(-c2ccccc2)nc1-c1cc2ccccc2o1)c1cccnc1	i	0.77	37.0	145.4	-2.8	1.0	108.6
57	CC1=NNC(=O)C1CC(=O)N/N=C/c1sccc1C (stereo not given)	i	0.89	nt	nt	nt	nt	99.3
58	O=C(Nc1nc2ccccc2[nH]1)c1ccc(Cl)c(S(=O)(=O)N2CCCC2)c1	i	0.987	-12.5	115.1	2.4	-1.9	94.9
59	Cc1ccc2cccc(SCC(=O)NCc3ccco3)c2n1	i	0.9	nt	nt	-5.8	0.1	102.8
60	CC(C)(C)c1ccc(OCC(=O)NNC(=O)C2CCCO2)cc1 (stereo not given)	i	0.92	nt	nt	-3.8	nt	164.2
61	CCOC(=O)c1cnc(SC2CC(=O)N(c3ccc(OC)c(OC)c3)C2=O)nc1N (stereo not given)	i	0.7	53.9	125.2	-3.7	0.0	98.3
62	Cc1nn(-c2ccccc2)c(=O)c2ccccc12	i	0.97	9.1	118.4	-4.6	nt	108.9
63	COc1ccc(/C=C/C(=O)NCCCc2ccccc2)cc1	i	0.84	6.7	106.2	-8.2	-1.3	100.4
64	CCOC(=O)Cc1cc(-c2ccc(O)cc2)nc2ccc3ccccc3c12	i	0.94	nt	nt	-10.6	-3.4	71.9
65	COC(=O)c1sccc1-c1ccc(/C=N/OC(=O)c2ccccc2)o1	i	0.78	34.1	108.6	-6.6	-3.4	97.9
66	CCOc1ccc(-n2c(O)cc(=O)[nH]c2=O)cc1	i	0.92	nt	nt	nt	nt	97.3
67	Cc1ccc(S(=O)(=O)Oc2ccc(/C=C(/NC(=O)c3ccccc3)C(=O)NC(C)C(=O)O)cc2)cc1 (stereo not given)	i	1.25	nt	nt	-4.4	nt	105.7
68	Cc1nc(NC(=O)CSc2nnnn2Cc2ccccc2)sc1C	i	0.973	nt	nt	-18.5	-0.4	151.0
69	O=C(Cn1c(C(F)(F)F)nc2ccccc21)N=Nc1c(O)[nH]c2ccc(Br)cc12	i	0.78	30.0	111.2	-13.2	nt	99.2
70	Cn1nnc2sc3c(c2c1=O)CCCC3	i	0.64	-31.4	77.6	4.2	-1.4	98.1
71	C=CCNC(=S)Nc1cc(Cl)ccc1OC	i	0.93	-61.3	89.5	0.0	-0.4	98.3
72	CC(=O)c1c(C)[nH]c(C(=O)CSc2nnc(-c3ccc(Cl)cc3)n2CC2CCCO2)c1C (stereo not given)	i	1.02	nt	nt	-1.0	-1.0	102.4
73	CC1=CC2=NC(=O)CC(C)(C(=O)N(CC(=O)NC(C)(C)C)C3CCCC3)N2C=C1 (stereo not given)	i	1.01	-62.8	121.2	-11.4	-1.4	94.6
74	CCOCCCNC(=O)C(NC(=O)c1ccc2c(c1)OCO2)c1ccccc1 (stereo not given)	i	0.94	nt	nt	-3.9	nt	101.2
